# Screening results (PubChem)
# Vaccinia mCherry: qHTS for Stage-Specific Inhibitors of Vaccinia Orthopoxvirus: mCherry Reporter Primary qHTS; Vaccinia virus mCherry reporter infection, fluorescence; about a quarter of the inactives have no number; Potency, µM (doses to about 36.5 µM), inactives show at the top dose activity change, negative = inhibition, usual class: inhibitors; 310,000 compounds, 0.63% hits; active = well fitted inhibition curve with a large enough effect; inconclusive = small, poorly fitted or top-dose-only effect; inactive = no such curve, though single readings can be large or run the other way; tested in A549 cells; also: nearly all actives have a fitted effect of over 35% in size; inactives centre near -10
# VACV Venus inh: qHTS for Stage-Specific Inhibitors of Vaccinia Orthopoxvirus: Venus Reporter Primary qHTS; Vaccinia virus Venus reporter expression, fluorescence; Potency, µM (top dose mostly 36.5 µM), inactives show top-dose activity change, negative = inhibition, most hits filed as inhibitors; 330,000 compounds, 0.46% hits; active means well fitted inhibition curve with a large enough effect; inconclusive means small, poorly fitted or top-dose-only effect; inactive means no such curve, though single readings can be large or run the other way; tested in A549 cells; also: nearly all actives have a fitted effect of over 30% in size; inactives centre near -10
# An asterisk follows results filed as active; i = inactive; ? = inconclusive; . = not tested or not shown; & = joins results of further samples. % is scaled to controls: 0 for no effect and ±100 for the full control effect; potency is read from the fitted curve at half-maximal effect.
SMILES,Vaccinia mCherry,VACV Venus inh
Cc1ccnc(SCC(=O)N2CCc3ccccc32)n1,-18%,-4%
O=c1[nH]snc1-c1c(Cl)cccc1Cl,-7%,-8%
COc1ccc(S(=O)(=O)N2CCCCC2)cc1NC(=O)Cn1cnc2c1c(=O)n(C)c(=O)n2C,-14%,-8%
CC1=NN(c2ccccc2)C(c2ccco2)C1 (configuration not stated),?,-15%
CCCCC(=O)N(Cc1nc2sc(C)c(C)c2c(=O)[nH]1)C1CCCC1,i,-9%
N#Cc1nc(-c2ccco2)oc1NCc1ccc(F)cc1,-10%,-8%
Clc1ccc(-c2csc(=Nc3ccccc3)n2Cc2ccc3c(c2)OCO3)cc1,1%,-8%
COC(=O)/C=C/c1ccccc1CN1[C@@H](CC(=O)OC)c2ccccc2S1(=O)=O,-1%,-13%
CCc1ccc(NC(=O)CSc2nnnn2-c2cccnc2)cc1,-9%,-24%
CCN1CCCc2cc(CN(CCN3CCOCC3)C(=S)Nc3cccc(C)c3)ccc21,?,-12%
CCC(C)NC(=O)CN1C(=O)NC2(CCc3ccccc3C2)C1=O (configuration not stated),i,-15%
COc1ccc(F)c(CN2CCOc3ccc(CN4CCC(Oc5cccnc5)CC4)cc3C2)c1,-23%,-7%
O=C(NCCn1cccn1)C1CCC(=O)N(CC2CCCCC2)C1 (configuration not stated),-10%,-10%
O=C(Nc1ccc2oc(-c3cccc(F)c3)nc2c1)c1ccc2ccccc2c1,-16%,-3%
Cc1noc(C)c1NC(=O)N(C)C[C@@H]1Oc2ncc(Br)cc2C(=O)N([C@@H](C)CO)C[C@@H]1C,i,-8%
CCN(CC)C(=O)C1CCCN(c2ncnc3c2c(-c2ccccc2)cn3-c2cccc(C)c2)C1 (configuration not stated),-17%,-11%
O=S(=O)(Nc1ccc(F)cc1)c1ccc(NS(=O)(=O)c2cccs2)cc1,i,-11%
O=C(O)c1ccc(/C=N/N2CCN(Cc3ccc(Cl)cc3)CC2)cc1,i,-6%
COc1cccc(C(=O)NC2CCN(C(=O)N3c4ccccc4Sc4ccccc43)CC2)c1,-20%,-14%
COC(=O)c1cccc(NC(=O)c2ccc(OC)c(Cl)c2)c1,i,-12%
CN(Cc1ccccc1)S(=O)(=O)c1ccc2[nH]c(=O)ccc2c1,i,-14%
O=C(NCc1ccc(F)cc1)c1cc(C2CCCCN2C(=O)OCCF)on1 (configuration not stated),8%,5%
Cc1ccc(S(=O)(=O)N2CCCCC2)cc1NC(=O)C1CC(=O)N(Cc2ccco2)C1 (configuration not stated),-14%,-4%
CCOc1ccc(CCNC(=O)c2ccc(Nc3nc4ccccc4n4nnnc34)cc2)cc1OCC,-2%,-13%
CC(C)(C)NC(=O)CCSc1nnc(-c2ccco2)o1,-13%,-11%
CNC(=S)NN=C(C)c1ccc(OC)cc1O,5µM*,?
Cc1[nH]c2ccccc2c1[C@H]1[C@@H](CC#N)C1(C)C,-1%,-21%
CCc1nc2ccc(C(=O)Nc3cc(-c4ccccc4)ccc3OC)cn2c1N(C)Cc1nccs1,-24%,-20%
CCC(CC)C(=O)N(C)c1c(C)nc2c(OCc3ccccc3C)cccn12,-14%,-3%
O=C(C(=NNc1ccccc1)c1ccccc1)c1ccccc1,-27%,-7%
O=C1OC(COc2ccc(Br)cc2)CN1c1ccccc1 (configuration not stated),-5%,-2%
CCCCC(=O)NC(=S)Nc1ccccc1N1CCCCC1,-7%,-6%
COc1ccc(C2CC(=O)c3c([nH]c(C(=O)OCCOc4ccccc4)c3C)C2)cc1OC (configuration not stated),-11%,-16%
Cc1ccc(NCC(=O)N2CCN(S(=O)(=O)c3ccccc3)CC2)cc1F,-13%,-23%
N#Cc1cc2c(nc1SCC(=O)N1CCCCC1)CCCCC2,-5%,-10%
COC(=O)NNS(=O)(=O)c1ccc(C)cc1,-14%,3%
Cc1c(C)n(Cc2ccccc2)c2ncnc(NCCO)c12,i,-16%
CCOC(=O)c1c(C)[nH]c(C(=O)NNC(=O)c2ccccc2F)c1C,-3%,-14%
Cc1ccc2c(O)c(Cc3ccccc3)c(=O)[nH]c2n1,i,-9%
CCOC(=O)N1CCN(CCC(=O)Nc2cccc(C)c2)CC1,i,1%
O=C(O)c1ccc2noc(-c3ccccc3)c2c1,.,4%
O=S(=O)(NCc1ccco1)N1CCOCC1,.,0%
O=C(c1ccc([N+](=O)[O-])cc1)N1CCSC1c1cccc(Cl)c1 (configuration not stated),-15%,-16%
S=c1nc(-c2ccccc2)n(CCCn2ccnc2)c2c1CCCC2,i,-7%
Cc1cc(C)cc(NC(=O)Cn2c(=O)n(CC(=O)NCCc3ccccc3)c(=O)c3ccccc32)c1,?,?
CC(C)C[C@H]1CN([C@@H](Cc2ccc(O)cc2)CN2CCC[C@@H]2CN2C(=O)C(=O)NC[C@@H]2Cc2ccccc2)C(=O)C(=O)N1CC1CCCCCC1,-22%,-14%
CCSc1ncc(Cl)c(C(=O)N(Cc2ccccc2)Cc2ccco2)n1,i,-23%
Cc1ccccc1-c1nc(C#N)c(N2CCCCC2)o1,-13%,-2%
Oc1cccc(Oc2ncc(C(F)(F)F)cc2Cl)c1,-15%,?
COc1ccc(/C=C/C(=O)NC(=S)NNC(=O)c2cccnc2)cc1,-1%,-3%

# Structural class, the compounds so far containing bromine.
SMILES,Vaccinia mCherry,VACV Venus inh
Cc1noc(C)c1NC(=O)N(C)C[C@@H]1Oc2ncc(Br)cc2C(=O)N([C@@H](C)CO)C[C@@H]1C,i,-8%
O=C1OC(COc2ccc(Br)cc2)CN1c1ccccc1 (configuration not stated),-5%,-2%

# Following part
SMILES,Vaccinia mCherry,VACV Venus inh
Cc1nc(NC(=O)C23CC4CC(CC(C4)C2)C3)sc1Cc1ccc2c(c1)OCO2,-17%,-16%
CCC12CN3CC(CC)(CN(C1)C3c1c(O)ccc3ccccc13)C2=O (configuration not stated),?,-7%
COC(=O)C1=C(c2ccccc2OCc2ccccc2)C[C@@H]2CC[C@H]1N2C(=O)NCc1ccc(C(C)(C)C)cc1,-4%,?
COc1ccc(OC)c(-n2nnc(-c3nc(-c4cc(OC)c(OC)c(OC)c4)no3)c2C)c1,?,-30%
Cc1cccc(NCC(=O)N/N=C\c2c[nH]c3ccccc23)c1,?,-9%
Cc1ccc(NC(=O)CCC(=O)NNC(=O)c2ccco2)cc1C,i,1%
COc1ccc(S(=O)(=O)Oc2cccc(/C=N/N=C3/NC(=O)C(CC(=O)O)S3)c2)cc1 (configuration not stated),-19%,-4%
C=C1c2cc(C)ccc2NC(=O)N1c1ccccc1,-18%,0%
CCC(=O)OCC(=O)[C@@]1(OC(=O)CC)[C@@H](C)C[C@H]2[C@@H]3CCC4=CC(=O)C=C[C@]4(C)[C@@]3(Cl)[C@@H](O)C[C@@]21C,-5%,-19%
Cc1ccc(S(=O)(=O)N2CCCOC2CNC(=O)C(=O)NC2CCCC2)cc1 (configuration not stated),-1%,-14%
COCCN1Cc2cccc(C(=O)Nc3c(C)cccc3C)c2C1=O,-17%,-14%
Cc1cc(C)cc(-n2c(C)c3c(C)nnc(C)c3c2C)c1,-11%,-13%
CCOc1ccc(-n2nc3ccc(NC(=O)Cc4ccccc4)cc3n2)cc1,-29%,-16%
CC1Cc2nc(SCC(=O)Nc3nc4ccccc4s3)n(C)c(=O)c2S1 (configuration not stated),?,?
Cc1nn2cnnc2c(C)c1Cc1c(F)cccc1Cl,-16%,-11%
CC(=O)CCn1cc([N+](=O)[O-])nc1C,i,-7%
O=C(CCN1C(=O)/C(=C/c2ccc3c(c2)OCO3)SC1=S)Nc1cccc(C(=O)O)c1,i,8%
O=C(N/N=C/c1ccc(O)cc1O)/C(=C/c1ccccc1)CCO,11µM*,?
CC(NC1CCCC1)c1ccccc1 (configuration not stated),-13%,-7%
O=C(COc1cc(F)ccc1[N+](=O)[O-])NCCCc1ccccc1,-3%,0%
COc1ccc(CCNC(=O)CN(c2ccccc2)S(=O)(=O)N(C)C)cc1,0%,8%
O=C(c1ccc(C(F)(F)F)cc1)N(Cc1cc2ccc(F)cc2nc1N1CCOCC1)C1CC1,-5%,-1%
CN(C)c1ccc(/C=C(\NC(=O)c2ccccc2)C(=O)NCc2ccncc2)cc1,12%,-3%
CN(CC(=O)Nc1ccccc1Cl)C(=O)COC(=O)c1ccc(Cl)cc1[N+](=O)[O-],i,-10%
Cc1ccc(Cl)cc1N1CCN(c2cccc[n+]2C)CC1,-27%,-21%
Brc1ccc([C@H]2C=C[C@H]3CCCN4CC[C@H]2[C@@H]3[C@]42CO2)cc1,21%,-1%
COC1=C(C)C(=O)C2=C(C1=O)C(CO)N1C(C#N)C3CC4C(C1C2N1CCOC41)N3C (configuration not stated),?,?
O=C(CSc1ncc2c(n1)-c1cc(Cl)ccc1N(Cc1ccccc1)S2(=O)=O)NCc1ccccc1,-21%,-4%
COCCCNC(=O)C[C@@H]1C[C@@]2(C(=O)OC)CC(C)(C)CC=C2N(CCc2ccc(OC)c(OC)c2)C1=O,-12%,-6%
O=S(=O)(NC(=NC1CCCC1)C(F)(F)F)c1ccccc1,.,-19%
Cc1ccc(C)c(NC(=O)CSc2ccc(-c3cccs3)nn2)c1,-14%,-14%
O=C(CCN1CCN(c2ccccc2)CC1)NNC(=O)Cc1c(F)cccc1Cl,-12%,-8%
Cc1ccc(CSc2ncnc3c2cnn3-c2ccccc2)cc1,-14%,-9%
Cc1ccc(NC(=O)Cn2nnc(C(=O)NCc3cccs3)c2N)cc1Cl,-5%,-3%&-1%
CC1C(=O)N2CCCc3cc(NC(=O)C(=O)NCCc4c[nH]c5ccccc45)cc1c32 (configuration not stated),-4%,-25%
O=C(CN1CCC(n2nnc3cc(F)ccc32)CC1)N1CCc2ccccc2C1,-2%,-15%
C[C@]12c3[nH]c4ccccc4c3CCN1C(=O)C(CC(=O)NCc1cccc(C(F)(F)F)c1)C[C@@H]2C(=O)N1CCOCC1 (some centres not stated),-6%,-22%
COc1ccc(OC)c(C2C(C(N)=O)=C(C)Nc3nc(CCCO)nn32)c1 (configuration not stated),i,-8%

# For convenience, part of the list above.
SMILES,Vaccinia mCherry,VACV Venus inh
CC1Cc2nc(SCC(=O)Nc3nc4ccccc4s3)n(C)c(=O)c2S1 (configuration not stated),?,?
Cc1nn2cnnc2c(C)c1Cc1c(F)cccc1Cl,-16%,-11%
CC(=O)CCn1cc([N+](=O)[O-])nc1C,i,-7%
O=C(CCN1C(=O)/C(=C/c2ccc3c(c2)OCO3)SC1=S)Nc1cccc(C(=O)O)c1,i,8%
O=C(N/N=C/c1ccc(O)cc1O)/C(=C/c1ccccc1)CCO,11µM*,?
CC(NC1CCCC1)c1ccccc1 (configuration not stated),-13%,-7%
O=C(COc1cc(F)ccc1[N+](=O)[O-])NCCCc1ccccc1,-3%,0%
COc1ccc(CCNC(=O)CN(c2ccccc2)S(=O)(=O)N(C)C)cc1,0%,8%
O=C(c1ccc(C(F)(F)F)cc1)N(Cc1cc2ccc(F)cc2nc1N1CCOCC1)C1CC1,-5%,-1%
CN(C)c1ccc(/C=C(\NC(=O)c2ccccc2)C(=O)NCc2ccncc2)cc1,12%,-3%
CN(CC(=O)Nc1ccccc1Cl)C(=O)COC(=O)c1ccc(Cl)cc1[N+](=O)[O-],i,-10%
Cc1ccc(Cl)cc1N1CCN(c2cccc[n+]2C)CC1,-27%,-21%
Brc1ccc([C@H]2C=C[C@H]3CCCN4CC[C@H]2[C@@H]3[C@]42CO2)cc1,21%,-1%
COC1=C(C)C(=O)C2=C(C1=O)C(CO)N1C(C#N)C3CC4C(C1C2N1CCOC41)N3C (configuration not stated),?,?
O=C(CSc1ncc2c(n1)-c1cc(Cl)ccc1N(Cc1ccccc1)S2(=O)=O)NCc1ccccc1,-21%,-4%
COCCCNC(=O)C[C@@H]1C[C@@]2(C(=O)OC)CC(C)(C)CC=C2N(CCc2ccc(OC)c(OC)c2)C1=O,-12%,-6%
O=S(=O)(NC(=NC1CCCC1)C(F)(F)F)c1ccccc1,.,-19%
Cc1ccc(C)c(NC(=O)CSc2ccc(-c3cccs3)nn2)c1,-14%,-14%
O=C(CCN1CCN(c2ccccc2)CC1)NNC(=O)Cc1c(F)cccc1Cl,-12%,-8%
Cc1ccc(CSc2ncnc3c2cnn3-c2ccccc2)cc1,-14%,-9%
Cc1ccc(NC(=O)Cn2nnc(C(=O)NCc3cccs3)c2N)cc1Cl,-5%,-3%&-1%
CC1C(=O)N2CCCc3cc(NC(=O)C(=O)NCCc4c[nH]c5ccccc45)cc1c32 (configuration not stated),-4%,-25%
O=C(CN1CCC(n2nnc3cc(F)ccc32)CC1)N1CCc2ccccc2C1,-2%,-15%
C[C@]12c3[nH]c4ccccc4c3CCN1C(=O)C(CC(=O)NCc1cccc(C(F)(F)F)c1)C[C@@H]2C(=O)N1CCOCC1 (some centres not stated),-6%,-22%
COc1ccc(OC)c(C2C(C(N)=O)=C(C)Nc3nc(CCCO)nn32)c1 (configuration not stated),i,-8%
